# VDR inhibitor – Inhibitors of the vitamin D receptor (VDR): qHTS. Potency, µM, for inactives: max response, negative = inhibition, actives largely listed as inhibitors. Vitamin D3 receptor (Homo sapiens), P11473. VDR-SRC2-3 peptide fluorescence polarization, 2 h. hit rate 0.93% among 400,000; active means well fitted inhibition curve with a large enough effect; inconclusive means small, poorly fitted or top-dose-only effect, or another doubt; inactive means no such curve, though single readings can be large or run the other way; further: series mostly up to about 120 µM
# Target sequence (P11473 whole entry, looked up): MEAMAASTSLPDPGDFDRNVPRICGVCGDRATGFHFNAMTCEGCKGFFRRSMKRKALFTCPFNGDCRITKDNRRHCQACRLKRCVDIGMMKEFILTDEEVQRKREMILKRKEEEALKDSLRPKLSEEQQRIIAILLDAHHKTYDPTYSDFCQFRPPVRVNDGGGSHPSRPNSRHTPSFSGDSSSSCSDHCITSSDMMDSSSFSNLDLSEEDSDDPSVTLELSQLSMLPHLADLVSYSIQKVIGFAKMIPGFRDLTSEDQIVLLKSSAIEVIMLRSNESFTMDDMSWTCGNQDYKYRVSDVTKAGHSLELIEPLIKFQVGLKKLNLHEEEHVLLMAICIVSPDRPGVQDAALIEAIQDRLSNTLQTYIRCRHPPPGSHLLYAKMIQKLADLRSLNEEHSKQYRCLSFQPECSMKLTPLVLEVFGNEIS
#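 The screen uses fluorescence polarization to detect compounds that interfere with recruitment of the SRC2-3 coactivator peptide to VDR; plates are read after 2 h at room temperature.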
# * = called active by the depositor; ? = inconclusive; & = joins results of further samples. On the % scale 0 is the no-effect control and ±100 the full control effect; potency means the concentration at half of the fitted maximal effect.
SMILES,VDR inhibitor
CC(C)Cn1c(Cc2ccccc2)n[nH]c1=S,26%
COc1ccc(CNC(=O)COc2cc3c(c4oc(=O)cc(C)c24)CCC(C)(C)O3)cc1OC,-18%
CCOC(=O)C1CCCN(C(=O)Cc2ccc(C)cc2)C1 (configuration not stated),4%
O=C(CC(c1ccccc1)c1ccccc1)NCCOCc1ccccc1,3%
COc1ccc(OCC(=O)Nc2cc(S(=O)(=O)N3CCCCC3)ccc2OC)cc1,-21%
COc1cc(/C=C/C(=O)O)ccc1OS(=O)(=O)c1cc(C)ccc1C,7%
CC(=O)/C(=N/Nc1ccccc1)N1CCOCC1,8%
CC(=O)NC1C(=O)N=C(SCc2ccccc2)NC1=O (configuration not stated),-5%
Cc1ccc(C(=O)NC2(C(F)(F)F)N=C3SCCN3C2=O)cc1 (configuration not stated),-16%
CCC1CSC(=Nc2ccc(C)cc2)N1C(=O)CN1C(=O)NC2(CCCC2)C1=O (configuration not stated),-3%
COc1ccccc1-c1nc(C(F)(F)F)c(OC)o1,0%
O=C(Nc1nccs1)c1ccc(NC(=O)c2ccco2)cc1,-6%
C=CCOc1ccc2c(OC)c3ccoc3nc2c1OC,17%
Cc1ccc(Oc2nnc(-c3cccs3)c3ccccc23)cc1,-10%
O=c1cc(CN2CCN(c3ccccc3)CC2)c2c(ccc3ccccc32)o1,4%
Brc1ccc([C@H]2CN3CCSC3=N2)cc1,-28%&2%
COc1ccc(NS(=O)(=O)c2cccc(C(=O)NNC(=O)c3cccn3C)c2)cc1,-1%
Cc1ccc(N2C(=O)C(Cl)=C(Nc3c(C)n(C)n(-c4ccccc4)c3=O)C2=O)cc1,-59%
CCOc1ccc(NC(=O)C(C)O)c(NS(=O)(=O)c2ccc(CCNC(C)=O)cc2)c1 (configuration not stated),0%
COc1ccc(Cc2nnc(NC(=O)c3cccc([N+](=O)[O-])c3C)s2)cc1,4%

# Fetched by structure from above, two records:
SMILES,VDR inhibitor
C=CCOc1ccc2c(OC)c3ccoc3nc2c1OC,17%
Cc1ccc(Oc2nnc(-c3cccs3)c3ccccc23)cc1,-10%

# Later entries
SMILES,VDR inhibitor
O=C(O)c1ccccc1C(=O)c1ccc2c(c1)N(Cc1cccc(F)c1)C(=O)CO2,3%
CCCn1c(-c2ccncc2)n[nH]c1=S,-7%
O=c1cc(O)c2ccccc2n1Cc1ccccc1F,7%
COc1cccc(CNC(=O)CCc2c(C)nn(-c3ccc(N4CCCC4)nn3)c2C)c1,-4%
O=C(COC(=O)CC1CC2CCC1C2)NC(=O)NCc1ccco1 (configuration not stated),1%
COc1ccccc1/C=C/C(=O)OCC(=O)N1CCCCC1,-10%
O=C(NC1CCN(C(=S)NCCc2ccccc2)CC1)C1CCCCC1,7%
COC(=O)[C@@]1(Cc2ccccc2)[C@H]2C(=O)N(Cc3ccccc3)C(=O)[C@H]2[C@H]2CN=C(SCC(=O)c3ccccc3)N21,-22%
CCc1nc(CN(C)C(=O)C2CCC(=O)N(Cc3cccc(F)c3)C2)no1 (configuration not stated),23%
Brc1cc(Br)c2ncnc(N3CCCCC3)c2c1,-6%
NS(=O)(=O)c1ccc(NC(=O)COc2ccc(Cl)cc2)cc1,-9%
CCn1c(=O)oc2cc(NC(=O)CCl)ccc21,-14%
O=C(CCN1CCCCC1=O)NC1CCCN(Cc2ccc(Cl)cc2)C1 (configuration not stated),-3%
COCCn1c(Cc2ccccc2)nnc1SCC(=O)NC1CC1,-22%
Cc1ccc(C)c(NC(=O)CSc2nc(N)c(NC(=O)c3cccs3)c(=O)[nH]2)c1,-12%
Cc1ccc(Oc2nc3c(c(=O)n(C)c(=O)n3C)n2C)cc1C,-13%
O=C(NC1C2CC3CC(C2)CC1C3)C1CC1 (configuration not stated),0%
COc1ccc(CCNC(=O)C(=O)NCC2CCCO2)cc1OC (configuration not stated),1%
COc1ccccc1NC(=O)C1=C(C)NC(=O)NC1c1cc(C)cs1 (configuration not stated),-11%
CCN(C(=O)CSc1nc2ccc(OC)cc2[nH]1)C1CCS(=O)(=O)C1 (configuration not stated),-7%
COc1ccc(N2CC(C(=O)NCCC3=CCCCC3)CC2=O)cc1 (configuration not stated),3%
CCOc1ccc(NC(=O)CCNS(=O)(=O)c2ccc3c(c2)oc(=O)n3C)cc1,13%&-4%
CC(C)Cc1nnc(NC(=O)CSc2nc(=O)cc(N)n2-c2ccccc2)s1,3%
Cc1cc(=O)n2nc(N3CCCC3C(=O)NCCCN3CCCCC3)sc2n1 (configuration not stated),-24%
Cc1cc(C)c(C(=O)N(C)C2CCCN(Cc3ccccc3F)C2)o1 (configuration not stated),-4%
O=C(/C=C/c1ccccc1Cl)c1cccnc1,45µM*
CSCC(=O)NCC1(N(C)Cc2ccccc2)Cc2ccccc2C1,6%
C[C@H](CO)N1C[C@H](C)[C@@H](CN(C)S(=O)(=O)c2cccs2)Oc2ccc(NS(=O)(=O)c3ccc(F)cc3)cc2C1=O,-6%
O=C(CSCc1c(Cl)cccc1Cl)Nc1nccs1,-1%
Cc1ccc(S(=O)(=O)NC(=NC(Cc2ccccc2)C(=O)O)c2ccccc2)cc1 (configuration not stated),-17%

# Rewritten tab-delimited: part of the list above.
Structure	VDR inhibitor
CC(C)Cn1c(Cc2ccccc2)n[nH]c1=S	26%
COc1ccc(CNC(=O)COc2cc3c(c4oc(=O)cc(C)c24)CCC(C)(C)O3)cc1OC	-18%
CCOC(=O)C1CCCN(C(=O)Cc2ccc(C)cc2)C1 (configuration not stated)	4%
O=C(CC(c1ccccc1)c1ccccc1)NCCOCc1ccccc1	3%
COc1ccc(OCC(=O)Nc2cc(S(=O)(=O)N3CCCCC3)ccc2OC)cc1	-21%
COc1cc(/C=C/C(=O)O)ccc1OS(=O)(=O)c1cc(C)ccc1C	7%
CC(=O)/C(=N/Nc1ccccc1)N1CCOCC1	8%
CC(=O)NC1C(=O)N=C(SCc2ccccc2)NC1=O (configuration not stated)	-5%
Cc1ccc(C(=O)NC2(C(F)(F)F)N=C3SCCN3C2=O)cc1 (configuration not stated)	-16%
CCC1CSC(=Nc2ccc(C)cc2)N1C(=O)CN1C(=O)NC2(CCCC2)C1=O (configuration not stated)	-3%
COc1ccccc1-c1nc(C(F)(F)F)c(OC)o1	0%
O=C(Nc1nccs1)c1ccc(NC(=O)c2ccco2)cc1	-6%
C=CCOc1ccc2c(OC)c3ccoc3nc2c1OC	17%
Cc1ccc(Oc2nnc(-c3cccs3)c3ccccc23)cc1	-10%
O=c1cc(CN2CCN(c3ccccc3)CC2)c2c(ccc3ccccc32)o1	4%
Brc1ccc([C@H]2CN3CCSC3=N2)cc1	-28%&2%

# New compounds follow.
SMILES,VDR inhibitor
O=c1[nH][nH]c2c(N=Cc3ccccc3O)ccc(F)c12,?
CCOc1ccc(-c2nnc(SCC(=O)NCc3ccc(Cl)cc3)o2)cc1,-1%
Cc1cc(C(=O)CSc2nnc(-c3ccccc3F)o2)c(C)n1Cc1cccs1,14%
CCN(c1ccccc1)S(=O)(=O)c1ccc(OC)c(NC(=O)CCc2nc3ccccc3c(=O)[nH]2)c1,-13%
Cc1ccc(N(CC(=O)NC(C)(C)C)C(=O)CCC(=O)Nc2nccs2)c(C)c1,0%
CN(C)S(=O)(=O)c1ccc(N2CCCC2)c(C(=O)NNC(=O)COc2cccc(F)c2)c1,6%
Fc1cccc(C[n+]2csc3ccccc32)c1,32µM*
CC(=O)Nc1ccc2c(c1)Cc1c(F)cccc1-2,18%
C=C1c2cccc(OC)c2O[C@H](C(=O)OCC)[C@@H]1CC(CC)CCCC (some centres not stated),14%&-3%
CCn1ccc(C(=O)Nc2ccccc2SC)n1,-15%
O=C(NC(=S)Nc1ccccc1O)c1ccc(-c2ccc(Cl)cc2)o1,-11%
CCC(=O)Nc1cccc(-c2cc3ccccc3oc2=O)c1,16%
O=C(CSc1nnnn1C1CCCCC1)Nc1ccccc1F,-8%
N#Cc1ccc(-c2csc(NC(=O)c3ccc(S(=O)(=O)N4CCc5ccccc5C4)cc3)n2)cc1,12%
C/C=C/c1ccc(OCCCCN2CCC(C)CC2)c(OC)c1,-7%
Cc1noc(/C=C/N(C)C)c1S(=O)(=O)NC1CCCCC1,-8%
Clc1cccc(-c2sc(Nc3ccccc3)n[n+]2-c2ccccc2)c1Cl,-22%
COc1ccc(-c2n[nH]c(=S)n2-c2ccc(C)cc2)cc1,?
COc1ccc(S(=O)(=O)Nc2cc(C)on2)cc1NC(C)=O,14%
COc1ccc(-c2cc(=O)c3cc(C)ccc3[nH]2)cc1,6%&-4%
CCOCCCn1c(=N)c(C(=O)NC2CCCCC2)cc2c(=O)n3ccccc3nc21,-7%
CCOc1ccc(C/C(O)=C2\C(=O)CC(C)(C)CC2=NCC(=O)O)cc1OCC,5%
COc1ccc(NC(=O)CCCn2nc(C)c3sc4ccccc4c3c2=O)cc1,9%
O=C(CNC(=O)c1ccc(Br)o1)NCc1ccccc1Cl,2%
COc1ccccc1NC(=O)CSc1nnc(-c2ccoc2C)n1CC1CCCO1 (configuration not stated),-6%
COc1cccc(-c2nc(CS(=O)CC(=O)NC3CC3)c(C)o2)c1 (configuration not stated),1%
O=C(NCCc1ccccc1)c1cc(S(=O)(=O)N2CCOCC2)ccc1F,6%
CN(C)S(=O)(=O)c1ccc(S(=O)(=O)NCCN2CCOCC2)cc1,-7%
CCN(CCO)c1ccc(-n2c(N)c(C(=O)OC)c3nc4ccccc4nc32)cc1,?
O=C(COC(=O)Cc1ccc(Cl)c(Cl)c1)NCc1ccco1,7%
CS/C(=N\S(=O)(=O)c1cccs1)Nc1ccc(Br)cc1F,-6%&-13%
O=C(N/N=C/c1ccc(OC(=O)c2ccco2)cc1)c1ccc[n+]([O-])c1,-15%
Cc1ccc(C2CC(c3ccco3)n3ncnc3N2)cc1 (configuration not stated),-13%
CCC(=O)Nc1nc2ccccc2n1Cc1ccccc1C,0%
COC(=O)C1=C(CSCc2ccco2)NC(=O)NC1c1cc(C)ccc1C (configuration not stated),6%
O=C1NC2CCc3nc4ccccc4c(=O)n3C2=Nc2ccccc21 (configuration not stated),-14%
COC(=O)c1ccccc1NC(=O)C1(c2cccs2)CCOCC1,3%
Cc1cc(SCC(=O)N/N=C/c2ccco2)nc2ccccc12,-2%
Cc1ccc(NC(=O)NNC(=O)c2cc3ccccc3cc2O)cc1C,2%
O=C(CNCc1ccccc1Cl)Nc1ccc(C(=O)N2CCCCC2)cc1,-3%
CCS(=O)(=O)Nc1ccc(C2=NN(C(C)=O)C(c3cccs3)C2)cc1 (configuration not stated),7%
COc1ccc(Br)cc1CNC(=O)CSc1n[nH]c(-c2ccccc2)n1,14%
CCCn1c(N)c(C(=O)CSc2nnc(N)s2)c(=O)[nH]c1=O,-23%
CN(c1ccc(C(=O)NC2CC3CCC2C3)cc1)S(C)(=O)=O (configuration not stated),4%
O=C(NCc1cccnc1)c1cccc(S(=O)(=O)NCc2ccccc2)c1,-5%
COc1ccc(S(=O)(=O)NC(CC(=O)NCC2CCCO2)c2ccco2)cc1 (configuration not stated),4%
O=S(=O)(c1ccccc1)c1nc(-c2ccco2)oc1NCCCN1CCOCC1,23%
O=C(NCCS(=O)(=O)N1CCN(c2ccc(F)cc2)CC1)c1ccc2c(c1)OCO2,-6%
COc1ccc(Cl)cc1NC(=O)c1[nH]nc(OC)c1[N+](=O)[O-],12%
Cc1cccc(-n2c(C)cc(/C=N/NC(N)=S)c2C)c1,-6%

# The listing continues.
SMILES,VDR inhibitor
Cc1cnc(C(=O)OC(C)C(=O)Nc2ccccc2-c2ccccc2)cn1 (configuration not stated),-8%
CCOc1ccc2oc(C(=O)NNC(=O)c3csc(N4CCOCC4)n3)c(C)c2c1,21%
O=C(Cn1cnc2c(nnn2-c2ccccc2)c1=O)N1CCOCC1,10%
CCC(=O)N1CCC2(CC1)Oc1ccc(Cl)cc1C(=O)C21CC(c2cccnc2)=NO1 (configuration not stated),-1%
CCOC(=O)c1cc(OC(=O)c2cccc(Cl)c2)n(-c2ccccc2)n1,21%
CCOC(=O)C1CCCc2c1[nH]c1c(C(N)=O)cccc21 (configuration not stated),-8%
CCOc1ccc(Cn2nnc(C(=O)Nc3ccc(OC)cc3OC)c2N)cc1,-12%
Cc1cccc(OCCOC(=O)C2CCN(S(=O)(=O)c3ccc(C)c(C)c3)CC2)c1,-5%
CCOC(=O)c1[nH]c(C)c(C(=O)NCCCN2CCOCC2)c1C,1%
CC(=O)Nc1c(C)nn(-c2ccc(C)c(C)c2)c1C,-5%
CCc1ccc2ncc(C(=O)c3ccc(C)c(C)c3)c(N3CCC(C(N)=O)CC3)c2c1,3%
Cc1nnc(SCC(=O)Nc2ccccc2F)n(N)c1=O,7%
CC(=O)Oc1cc(OC(C)=O)c2c(c1)OC(c1ccc(OC(C)=O)c(OC(C)=O)c1)C(OC(C)=O)C2 (configuration not stated),7%&6%
CC(=O)c1ccc(N2CCN(C(=O)CCCCn3c(=O)[nH]c4ccsc4c3=O)CC2)cc1,4%
CCCN(CC(=O)Nc1ccccc1C)C(=O)C1CCN(S(=O)(=O)c2ccc3c(c2)OCCO3)CC1,4%
CCOc1cc(C)c(S(=O)(=O)Nc2ccc3cn[nH]c3c2)cc1C,0%
CSc1ccccc1NC(=O)CCn1c(=O)sc2ccccc21,-1%
O=C(Nc1ccnn1C1CCN(Cc2ccc3nonc3c2)CC1)c1cccc(F)c1,8%
CCOC(=O)c1nnn(CC(=O)Nc2cccc(Cl)c2C)c1C(=O)OCC,-4%
Cc1ccc(S(=O)(=O)NCCCN2CCOCC2)cc1C,-12%
CCn1c(CNC(=O)c2ccc(OC)cc2)nnc1SCC(=O)Nc1cccc(C)c1C,-1%
O=C(O)CCCn1cc(NC(=O)c2sc3ccccc3c2Cl)cn1,-9%
CCOc1ccccc1CN1C(=O)c2ccccc2C1C(=O)NCC1CCCO1 (configuration not stated),-9%
COc1cccc(C2C(C(=O)c3cc4ccccc4o3)=C(O)C(=O)N2CCN2CCOCC2)c1 (configuration not stated),-4%
O=c1cc(N2CCN(Cc3ccccc3)CC2)[nH]c(=O)n1-c1ccc(Br)cc1,-23%
CC(NC(=O)CN1CCN(S(=O)(=O)c2ccc(Br)cc2)CC1)c1ccccc1 (configuration not stated),-9%

# Screening data as filed in PubChem BioAssay.

# The list is partial; the hit share may differ from the screen's.
